Source: PubChem (several laboratories)
eIF4H FP inh: human eIF4H binding inhibitors, primary screen, translation initiation inhibitor project, biochemical, uHTS, fluorescence polarization | Eukaryotic translation initiation factor 4H (Homo sapiens), Q15056 | eIF4H fluorescence polarization binding assay | inhibition, % at 35 µM | 290,000 compounds, 0.94% hits | AID 2012, 2009;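 active means 50% or more with normal probe brightness, or confirmed in later tests; about a fifth of its hits are not listed in these tables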;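 further: calls also rest on retests at 20 µM and on dose response follow-up; 0% = protein and probe with vehicle and 100% = probe without protein; strong numbers were not always called active; many hits fall short of the cut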
Rce1 inh: yeast Rce1p protease inhibitors, primary screen, biochemical, fluorescence, cell-free homogeneous | yeast membranes, quenched prenylated peptide cleavage fluorescence | calls only | CAAX prenyl protease 2 (Saccharomyces cerevisiae (strain ATCC 204508 / S288c)), Q03530 | 290,000 compounds, 0.27% hits;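 active means fall in fluorescence gain of 50% or more versus controls, with final raw signal at or below 3038400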;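 further: plate controls were neutral control wells for no effect and wells lacking membranes for full effect; tested at 10 µM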
PABP polyA inh: PABP poly(A) RNA binding inhibitors, primary screen, biochemical, fluorescence polarization, uHTS. Polyadenylate-binding protein 1 (Homo sapiens), P11940. inhibition, % at 35 µM. 290,000 compounds, 1% hits;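 active means 50% or more with normal probe brightness, or confirmed in later tests; about a fifth of its hits are not listed in these tables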;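 further: calls also rest on retests at 20 µM and on dose response follow-up; controls were probe without protein and protein plus probe with vehicle; some compounds called inactive have numbers as strong as hits; many hits fall short of the cut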
Target sequence (P11940 whole entry, looked up): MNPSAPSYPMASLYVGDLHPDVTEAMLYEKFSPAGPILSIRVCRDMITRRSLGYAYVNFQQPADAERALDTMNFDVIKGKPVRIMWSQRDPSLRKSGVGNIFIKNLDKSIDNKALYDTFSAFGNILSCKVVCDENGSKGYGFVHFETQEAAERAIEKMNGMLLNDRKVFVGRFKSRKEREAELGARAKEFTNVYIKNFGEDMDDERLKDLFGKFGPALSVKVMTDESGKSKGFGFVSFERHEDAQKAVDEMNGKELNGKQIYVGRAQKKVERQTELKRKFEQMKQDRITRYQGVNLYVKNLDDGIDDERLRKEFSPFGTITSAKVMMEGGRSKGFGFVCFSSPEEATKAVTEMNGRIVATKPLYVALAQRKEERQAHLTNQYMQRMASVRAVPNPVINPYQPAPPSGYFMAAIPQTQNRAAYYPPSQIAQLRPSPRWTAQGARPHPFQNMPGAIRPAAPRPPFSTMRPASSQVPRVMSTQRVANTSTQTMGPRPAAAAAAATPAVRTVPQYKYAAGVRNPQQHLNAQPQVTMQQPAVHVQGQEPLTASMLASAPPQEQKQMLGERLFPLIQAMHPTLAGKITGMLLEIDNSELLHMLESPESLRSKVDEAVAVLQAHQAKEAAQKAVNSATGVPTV
MT1-MMP act inh: blockers of MT1-MMP proenzyme processing, primary screen, HT1080 RFP-PRO-GFP cells, GFP/RFP fluorescence; 360,000 compounds, 0.061% hits; GFP/RFP ratio fluorescence, overnight; percent of plate control window, DMSO zero; Matrix metalloproteinase-14 (Homo sapiens), P50281; GFP/RFP ratio change, % at 20 µM; AID 651647, 2012;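 active means GFP/RFP ratio change of at least 30% with cell ATP level not reduced by more than half and red fluorescence within 50% of control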; further: strong numbers were not always called active
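Assay system: HT1080 RFP-PRO-GFP cells | Dosing: 20 µM single dose, 1% DMSO | Incubation: Cells overnight before dosing, compound overnight, 37 °C, 5% CO2 | Evaluation: GFP/RFP fluorescence ratio | Control set: DMSO-only wells and HT1080 RFP-L50D-GFP cell wells as references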
HIV Env fusion: inhibitors of HIV-1 Env-driven cell-cell fusion, primary screen, HeLa-JRFL effector, CEM21 target cells, luciferase | inhibition, % at 12.3 µM | 360,000 compounds, 1.1% hits | AID 651610, 2012;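 active means mean replicate inhibition score of at least 50 and every replicate individually at or above 50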;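 further: 0% = plate neutral controls and 100% = maraviroc near 300 nM; one replicate is shown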
Yeast UUG start: modulators of yeast start codon fidelity, primary screen, whole organism, S. cerevisiae, single point, plate reader | S. cerevisiae UUG-firefly luciferase reporter, luminescence/redox ratio | activity score, % at 18.7 µM | 350,000 compounds, 0.13% hits | AID 602363, 2012;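 active means replicate mean at a twofold rise or more, about +100% in these data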;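 further: firefly luciferase made from a UUG start codon reports start codon fidelity; reporter light over untreated wells divided by growth signal over untreated wells; some hits fall short of that in this replicate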
CSC inhib: cancer stem cell viability inhibitors, primary screen, luminescence. cancer stem cell-like cells viability. inhibition, % at 7.5 µM. 300,000 compounds, 1.1% hits;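 active means mean at 75% or more and at least half the replicates too; tested in HMLE shEcad cells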;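 further: 0% = median of negative and 100% = median of positive control wells; the first replicate is given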
eIF4H FP inh retest: recorded beside eIF4H FP inh, whose call it bears; inhibition, %; compound at 20 µM; confirmation average;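 mean of two retest wells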
PABP polyA inh retest: also measured in PABP polyA inh; calls as there; inhibition, %; compound at 20 µM; confirmation repeats;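 mean of two retest wells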
MT1-MMP act inh RFP: also measured in MT1-MMP act inh; calls as there; RFP signal change, %; measured here: RFP expression control read;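 0 = vehicle wells; hits needed this value within 50% of zero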
The depositor's hits bear a star; i = inactive; nt = no result given; & = joins results of further samples. These rows are one share of the data; rates above refer to the full screens.

SMILES	eIF4H FP inh	Rce1 inh	PABP polyA inh	MT1-MMP act inh	MT1-MMP act inh RFP	HIV Env fusion	Yeast UUG start	CSC inhib	others
CN(C)S(=O)(=O)c1ccc(C(=O)N(c2ccccn2)c2ccccn2)cc1	3	i	-4	3	2	-19	-3	-3
CN(C)C(=O)CNc1ccn2nc(-c3cccc(OCCN4CCOCC4)c3)cc2n1	nt	nt	nt	0	2	-24	-20	nt
O=C(NCCc1ccccc1)C(=O)NCC1OCCN1S(=O)(=O)c1ccccc1 (configuration not stated)	-3	i	-9	-3	-3	-8	-3	-4
Cc1cc2nnc(SCC(=O)N3C(C)CCCC3C)n2c(N)n1 (configuration not stated)	-1	i	-6	11	5	-18	-9	-7
CN(CC(=O)Nc1ccc(F)cc1)C(=O)COC(=O)CNC(=O)c1sc2ccccc2c1Cl	nt	nt	nt	0	-1	4	-7	-3
C=CCC1(CC=C)CCCN1C(=O)c1cc(COc2cncc(Cl)c2)on1	-2	nt	-2	-15	-33	28	-7	11
CCOc1ccc(=O)n(-c2ccccc2)n1	-4	i	-2	-4	-5	nt	-9	1
Fc1cccc(NC(=S)NCc2ccc(Cl)cc2)c1	-7	i	13	6	8	11	nt	7
Cc1ccc(C2=NC3(CCCC3)N=C2SCC(=O)Nc2ccc3c(c2)OCCO3)cc1	7	i	0	-5	-3	22	-10	11
O=C(COc1ccc(Cl)cc1)OCC(=O)N1CCCC1	-5	i	4	1	-1	nt	-18	-2
CCOc1ccc(NC(=S)NN2CCN(C)CC2)cc1	1	i	2	5	4	-15	nt	-13
CCN1CCN(c2cc(C)c3cc(NC(=O)c4ccc(C)c(C)c4)ccc3n2)CC1	-4	i	-4	6	3	19	-2	30
COc1cccc(C(=O)Nc2nnc(-c3ccc(F)cc3)o2)c1	6	i	-4	6	3	-13	-16	24
CCCn1nc(Oc2nc(NCC)nc(NC(C)C)n2)ccc1=O	-9	i	-3	12	8	-1	-9	6
CN1CCN(S(=O)(=O)c2ccc(N3CCN(C(=O)c4ccccc4)CC3)nc2)CC1	0	i	9	-1	-4	-1	-5	2
O=C(NNS(=O)(=O)c1ccc(Br)cc1)c1csnn1	13	nt	-22	-4	-1	4	nt	nt
CCCN1CCN(CCCNC(=O)c2cc3c(=O)oc4ccc(C)cc4c3s2)CC1	nt	i	nt	6	2	7	-4	-13
Cc1onc(-c2ccccc2)c1C(=O)NC1CCCCC1C (configuration not stated)	nt	nt	nt	1	4	-10	-17	nt
C[C@H](CO)N1C[C@H](C)[C@@H](CN(C)C(=O)Nc2ccc3c(c2)OCO3)Oc2ccc(NC(=O)CCN3CCOCC3)cc2C1=O	nt	nt	nt	2	2	14	-10&1	3
CC(=O)c1ccc(Cc2ccccc2)cc1	-4	i	6	0	5	-32	nt	0
COc1ccc(C(=O)Oc2c(CN3CCOCC3)cc(Cl)c3cccnc23)cc1	3	i	6	2	5	nt	-26	14
O=C(NNS(=O)(=O)c1ccccc1[N+](=O)[O-])c1cccc([N+](=O)[O-])c1	-9	i	7	1	4	nt	8	12
CCO[C@@H]1OC(C(=O)N2CCN(C)CC2)=C[C@H](C(C)(C)C)[C@H]1CCCO	2	i	-6	nt	nt	nt	nt	2
O=[N+]([O-])c1cc(S(=O)(=O)N2CCOCC2)ccc1OCc1cccc(Cl)c1	nt	nt	nt	1	-6	9	-9	nt
CC1CCCC(NC(=O)c2ccncc2)C1C (configuration not stated)	-6	i	-14	-13	-1	14	-18	-8
O=C(Cc1ccccc1[N+](=O)[O-])Nc1cccc(S(=O)(=O)NC2=NCCCCC2)c1	nt	i	nt	-9	-5	9	-5	nt
Cc1ccc(S(=O)(=O)N2CCOCC2)cc1C(=O)N1CCN(S(=O)(=O)c2cccs2)CC1	-8	i	0	1	1	-8	5	-7
COc1ccc(/C=C2/SC(=S)N(CCC(=O)N3CCN(C)CC3)C2=O)cc1	-9	i	-5	6	3	18	-3	58
COc1ccc(S(=O)(=O)N(C)CC(=O)Nc2ccc3c(c2)OCCO3)cc1OC	-10	i	-17	-1	0	nt	-6	-11
CCc1nc(N2CCN(C(=O)c3ccco3)CC2)c2c3c(sc2n1)CCCC3	-6	i	2	-5	-9	-72	nt	nt
CCCCCCN1C[C@@H](n2cc(-c3ccc(F)cc3)nn2)[C@H](O)C[C@@H]1c1ccccc1	nt	nt	nt	-2	-3	26	-1	nt
Cc1ccc(O)c(-c2cc(C(F)(F)C(F)F)[nH]n2)c1	-11	i	-7	3	-5	nt	-6	0
COc1cccc(CN2CC(C(=O)N3CCOCC3)CCC2=O)c1 (configuration not stated)	-11	i	7	0	3	-11	-24	5
COc1ccc(C(=O)Nc2c(N)nc(SCC(=O)Nc3ccc(NC(C)=O)cc3)[nH]c2=O)cc1	41	i	15	2	3	-9	-8	22
CC1(C)NC(=O)N(CC(O)CN(c2ccccc2)S(=O)(=O)c2ccccc2[N+](=O)[O-])C1=O (configuration not stated)	4	i	8	-3	2	3	-19	-6
CCCCNc1c(-c2ccc(-c3ccc(OC)cc3)c(OC)c2)nc2ccccn12	nt	nt	nt	11	-9	9	-10	nt
CCOC(=O)CC1C(=O)NCCN1S(=O)(=O)c1ccc(F)cc1 (configuration not stated)	5	i	-4	1	2	-11	nt	-5
Cc1ccc(-n2ncc3c(=O)[nH]c(SC(C)C)nc32)cc1	4	nt	-14	-1	-4	15	-10	14
COc1ccc(CC(=O)NNC(=O)c2c(-c3ccccc3Cl)noc2C)cc1OC	2	i	8	-2	0	5	nt	-10
Cc1cc(C)n(C(=O)CNC(=O)c2cccc(F)c2)n1	-1	i	14	-1	-2	5	-10	nt
C[C@@H]1CN(S(=O)C(C)(C)C)[C@@H](CCO)/C1=C\CCO (some centres not stated)	nt	nt	nt	2	5	-69	-2	nt
Cc1ccc(NC(=O)COC(=O)/C=C/c2ccco2)cc1S(=O)(=O)N(C)C	nt	i	nt	-1	3	13	nt	-7
CCCCN(CCCC)S(=O)(=O)c1ccc(C(=O)Nc2nnc(CSC)o2)cc1	8	i	-5	1	-4	20	2	22
O=C(OCC(=O)N1CCOCC1)c1ccccc1OCc1ccccc1Cl	nt	nt	nt	-1	-3	-15	-42	nt
COC(=O)C1(Cc2ccccc2)NC(c2ccc(F)cc2)C2C(=O)N(C)C(=O)C21 (configuration not stated)	2	nt	-21	7	4	nt	2	20

Random excerpt: 3 entries already listed
SMILES	eIF4H FP inh	Rce1 inh	PABP polyA inh	MT1-MMP act inh	MT1-MMP act inh RFP	HIV Env fusion	Yeast UUG start	CSC inhib	others
CCCCNc1c(-c2ccc(-c3ccc(OC)cc3)c(OC)c2)nc2ccccn12	nt	nt	nt	11	-9	9	-10	nt
CC1(C)NC(=O)N(CC(O)CN(c2ccccc2)S(=O)(=O)c2ccccc2[N+](=O)[O-])C1=O (configuration not stated)	4	i	8	-3	2	3	-19	-6
Cc1ccc(NC(=O)COC(=O)/C=C/c2ccco2)cc1S(=O)(=O)N(C)C	nt	i	nt	-1	3	13	nt	-7

(further entries)
SMILES	eIF4H FP inh	Rce1 inh	PABP polyA inh	MT1-MMP act inh	MT1-MMP act inh RFP	HIV Env fusion	Yeast UUG start	CSC inhib	others
Cc1cccc2nc(C(F)(F)F)nc(=O)n12	-2	i	-3	1	2	nt	-13	-9
CN1CCc2c(sc3c2c(=O)n(-c2ccc(Cl)cc2)c2nncn32)C1	-8	nt	0	-6	2	-93	1	-1
CC(C)C[C@H]1CN=C(Nc2ccccc2)N1CC1CCCC1	-7	i	-2	5	5	-13	-17	-4
COc1ccc(C2=CC(=O)C=CC2=O)cc1	-4	i	10	nt	nt	nt	1	nt
CCOC(=O)NC(C(F)(F)F)(C(F)(F)F)P(=O)(c1ccccc1)c1ccccc1	0	i	3	0	8	nt	nt	-6
COc1ccc2nc(NC(=O)CSc3nc4cccnc4n3C)sc2c1	7	i	9	-3	-21	-90	-14	-15
CCCCCCC(=O)Nc1nc(C)c(-c2csc(Nc3cc(Cl)ccc3C)n2)s1	-5	i	-4	5	6	-6	-16	7
COc1ccc(OC)c(NC(=O)COc2coc(CN3CCCc4ccccc43)cc2=O)c1	nt	i	nt	-10	-21	-61	4	1
O=C(O)c1ccccc1C(=O)OCCCc1ccncc1	nt	i	nt	5	0	-29	-15	-9
O=C(NCC1CCCO1)/C(=C\c1ccco1)NC(=O)c1ccc(Cl)cc1 (configuration not stated)	6	i	0	0	1	-14	nt	nt
CN(CC(=O)Nc1c(Cl)cccc1Cl)C(=O)CC1Sc2ccccc2NC1=O (configuration not stated)	nt	i	nt	-3	-4	-2	nt	-5
O=C(NC1CCCCCCC1)c1cccs1	-6	i	7	-6	1	-18	-12	-14
CCOC(=O)c1c(-n2c(C)cc(C=O)c2C)sc2c1CCCC2	-9	i	-3	-5	-6	nt	nt	5
CCCCOc1ccc(C(=O)NCC(=O)NC2CCC(C)CC2)cc1 (configuration not stated)	nt	i	nt	6	-3	-5	-12	1
CCOC(=O)C1(Cc2ccc(OC)cc2)CCN(C(=O)c2cc3ccccc3[nH]2)CC1	-2	i	-14	-6	-7	-24	nt	19
CCNC(=O)CCS(=O)(=O)c1ccc2ccccc2c1	0	i	-5	-1	-1	-22	-9	-3
N#Cc1c2n(c(=S)n(-c3ccc(OC(F)F)cc3)c1=O)CCCCC2	-1	i	-14	4	1	12	nt	5
CCCc1nc2ccccc2c(C(=O)OCC(=O)NCc2ccco2)c1CC	4	i	-7	2	-3	-13	-11	-6
Cn1c(SCC2CCCO2)nnc1-c1cccc([N+](=O)[O-])c1 (configuration not stated)	-10	nt	14	-3	-5	24	nt	-4
O=C(O)CCC(=O)NN1C(=O)c2ccccc2NC1c1ccc(F)cc1 (configuration not stated)	-6	i	2	1	5	0	nt	-6
O=C(CNC(=O)c1ccc(Cl)cc1)NNC(=O)c1ccc(Br)cc1	nt	nt	nt	-1	2	-85	-12	-7
CCOC(=O)N1CCC(NS(=O)(=O)c2cc3c(cc2Cl)NC(=O)CO3)CC1	2	i	2	-4	-5	-16	2	9
COc1ccc(CN(C)C(=O)C(CCSC)NS(=O)(=O)c2ccc3c(c2)OCCO3)c(OC)c1OC (configuration not stated)	nt	nt	nt	0	5	11	-9	nt
Cc1noc(C)c1C(=O)N1CCCC(N2CCN(c3cccc(C(F)(F)F)c3)CC2)C1 (configuration not stated)	1	i	-20	-1	0	9	-11	-5
CCC(=O)c1ccc(OCC(=O)Nc2nn3cnnc3s2)cc1	-2	i	8	1	0	nt	-21	-18
CN(C)S(=O)(=O)c1cccc(NC(=O)COC(=O)COc2ccc(Br)cc2)c1	-10	i	0	13	11	0	-12	16
COc1cc(/C=C/c2nc3ccccc3s2)cc(OC)c1O	-7	i	-24	-110	19	-21	nt	-1
COc1cccc(/C=N/NC(=O)c2nnn(-c3nonc3N)c2CN(C)C2CCCCC2)c1	nt	nt	nt	-5	-1	10	-24	nt
COC(=O)c1ccc(NC(=O)CN2C(=O)CCC2=O)cc1	0	i	9	4	4	-48	-9	0
Cc1ccc(C(=O)COC(=O)C(C)N2C(=O)C3C4C=CC(C4)C3C2=O)cc1 (configuration not stated)	-4	i	-3	0	0	-1	6	-8
CC(C)(C)c1cc(-n2ccnc2)n2ncc(-c3ccc(Cl)cc3)c2n1	-7	i	59	-8	2	-8	nt	11	eIF4H FP inh retest=7;PABP polyA inh retest=3
